Yeast UUG start: modulators of start codon recognition fidelity in yeast. activity score, % at 18.7 µM. S. cerevisiae UUG-firefly luciferase reporter, luminescence/redox ratio. 350,000 compounds, 0.13% hits. AID 602363;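 active means replicate mean at a twofold rise or more, about +100% in these data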;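 further: firefly luciferase made from a UUG start codon reports start codon fidelity; reporter light over untreated wells divided by growth signal over untreated wells; some hits fall short of that in this replicate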
eIF4H inh: inhibitors of RNA binding by human eIF4H | 290,000 compounds, 0.94% hits | eIF4H fluorescence polarization binding assay | Q15056 | inhibition, % at 35 µM;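 active means 50% or more with normal probe brightness, or confirmed in later tests; inconclusive means above 50% with abnormal brightness, or retests that disagree; inactive means below 50% or failed in later tests; about a fifth of its hits are not listed in these tables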;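 further: calls also rest on retests at 20 µM and on dose response follow-up; 0% = protein and probe with vehicle and 100% = probe without protein; strong numbers were not always called active; many hits fall short of the cut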
PABP polyA inh: PABP-poly(A) binding inhibition | P11940 | PABP-poly(A) RNA binding, fluorescence polarization | inhibition, % at 35 µM | 290,000 compounds, 1% hits | AID 2014;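 active means 50% or more with normal probe brightness, or confirmed in later tests; inconclusive means above 50% with abnormal brightness, or retests that disagree; inactive means below 50% or failed in later tests; about a fifth of its hits are not listed in these tables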;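 further: calls also rest on retests at 20 µM and on dose response follow-up; controls were probe without protein and protein plus probe with vehicle; some compounds called inactive have numbers as strong as hits; many hits fall short of the cut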
Target sequence (P11940 whole entry, looked up): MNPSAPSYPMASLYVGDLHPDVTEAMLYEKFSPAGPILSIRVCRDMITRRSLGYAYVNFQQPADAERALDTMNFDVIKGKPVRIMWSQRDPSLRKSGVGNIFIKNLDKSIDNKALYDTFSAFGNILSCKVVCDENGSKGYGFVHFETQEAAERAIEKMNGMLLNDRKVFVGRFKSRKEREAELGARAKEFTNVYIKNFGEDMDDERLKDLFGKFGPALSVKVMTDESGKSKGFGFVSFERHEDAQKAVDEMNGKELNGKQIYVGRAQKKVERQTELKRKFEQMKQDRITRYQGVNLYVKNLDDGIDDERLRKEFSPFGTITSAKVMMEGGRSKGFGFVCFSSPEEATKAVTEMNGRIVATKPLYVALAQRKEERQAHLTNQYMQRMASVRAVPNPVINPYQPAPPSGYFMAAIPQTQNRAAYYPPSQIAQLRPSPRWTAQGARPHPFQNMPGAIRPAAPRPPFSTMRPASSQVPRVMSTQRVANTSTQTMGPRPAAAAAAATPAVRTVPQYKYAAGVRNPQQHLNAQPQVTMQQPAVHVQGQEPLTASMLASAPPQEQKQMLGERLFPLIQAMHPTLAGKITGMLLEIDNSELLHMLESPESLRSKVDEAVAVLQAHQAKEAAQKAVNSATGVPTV
CSC inhib: cancer stem cell inhibition; inhibition, % at 7.5 µM; 300,000 compounds, 1.1% hits; cancer stem cell-like cells viability, luminescence;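 active means mean at 75% or more and at least half the replicates too; inconclusive means mean and replicates disagree; tested in HMLE shEcad cells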;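 further: 0% = median of negative and 100% = median of positive control wells; the first replicate is given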
Rce1 inh: yeast Ras-converting enzyme inhibition; Q03530; yeast membranes, quenched prenylated peptide cleavage fluorescence; calls only; 290,000 compounds, 0.27% hits; AID 2563;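 active means fall in fluorescence gain of 50% or more versus controls, with final raw signal at or below 3038400; inconclusive means same 50% fall but final raw signal above 3038400; inactive means fall in fluorescence gain under 50%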;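 further: plate controls were neutral control wells for no effect and wells lacking membranes for full effect; tested at 10 µM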
HIV Env fusion: HIV envelope-mediated fusion inhibition; HeLa-JRFL Env/CEM21 cell fusion, luciferase; inhibition, % at 12.3 µM; 360,000 compounds, 1.1% hits; AID 651610;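 active means mean replicate inhibition score of at least 50 and every replicate individually at or above 50; inconclusive means only one of the two criteria met; inactive means mean below 50 and not all replicates reaching 50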;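 further: 0% = plate neutral controls and 100% = maraviroc near 300 nM; one replicate is shown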
MT1-MMP act inh: inhibitors of human MT1-MMP activation; HT1080 RFP-PRO-GFP cells, GFP/RFP ratio fluorescence, overnight; percent of plate control window, DMSO zero; GFP/RFP ratio change, % at 20 µM; 360,000 compounds, 0.061% hits;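 active means GFP/RFP ratio change of at least 30% with cell ATP level not reduced by more than half and red fluorescence within 50% of control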; further: strong numbers were not always called active
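Read-out: GFP/RFP fluorescence ratio; Test system: RFP-PRO-GFP reporter HT1080 cells; Compound dosing: single-point 20 µM compound, 1% DMSO; Times: overnight compound exposure at 37 °C.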
eIF4H inh retest: second read-out of eIF4H inh, no call of its own (marks repeat the call); inhibition, %; compound at 20 µM; confirmation average;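 mean of two retest wells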
PABP polyA inh retest: further read-out of PABP polyA inh, marked with its call; inhibition, %; compound at 20 µM; confirmation repeats;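 mean of two retest wells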
MT1-MMP act inh RFP: second read-out of MT1-MMP act inh, no call of its own (marks repeat the call); RFP signal change, %; measured here: RFP expression control read;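 0 = vehicle wells; hits needed this value within 50% of zero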
Active calls of the source: *; i = inactive; ? = inconclusive; · = not tested or not shown; & = joins results of further samples; [ ] = dose if it differs, or a comment.

SMILES	Yeast UUG start	eIF4H inh	PABP polyA inh	CSC inhib	Rce1 inh	HIV Env fusion	MT1-MMP act inh	MT1-MMP act inh RFP	others
O=C(N/N=C/C=C/c1ccccc1)c1ccccn1	·	-12	-10	-4	i	-6	1	1
Cc1ccc2[nH]c(=O)c3cc(C(=O)NCCC(C)C)sc3c2c1	-21	6	-8	6	i	-36	3	-1
O=C(c1ccc(C(F)(F)F)cc1)c1c[nH]c(C(=O)NCCCn2ccnc2)c1	16	-7	3	42	i	15	4	4
COc1cc(C(=O)N2CCC3(CC2)NCCc2[nH]cnc23)cc(OC)c1OC	-9	·	·	4	i	-5	1	5
C#CC[N+]1(CC#Cc2ccccc2)CCCCC1	·	8	-6	-10	i	2	0	1
Cc1ccc(C2(CC(=O)N3CCCC3)CCOC(C(C)C)C2)cc1 (stereo unspecified)	-9	1	-15	-8	i	-11	1	3
Cc1c(C(=O)N/N=C/c2ccccc2)[nH]c2c([N+](=O)[O-])cccc12	-16	6	10	40	i	5	-4	-10
CSc1n[nH]c2nc3c(c(=O)n12)C1(CCCC1)Cc1ccccc1-3	-11	2	-66	28	i	5	0	2
O=C(O)c1ccc(OCCOc2ccccc2)cc1	-19	-4	-6	8	i	-5	3	4
CCOc1ccc(-c2nnc3ccc(SCC(=O)NCc4ccco4)nn23)cc1	-16	-8	8	·	i	-17	0	-8
CC(=O)c1cn(N2CCCCC2)c(=O)[nH]c1=O	-16	-5	-1	-4	i	1	-1	4
COc1ccccc1N(CC(=O)Nc1ccc(C(F)(F)F)cc1)S(C)(=O)=O	·	-5	-4	11	i	2	3	-1
COCc1c(C(=O)OCC(=O)N(C)C2CCS(=O)(=O)C2)oc2ccccc12 (stereo unspecified)	-4	·	·	-11	·	·	-3	0
NC(=O)c1[nH]cnc1N	-31&-15	4&-10	-5&3	2&7	i	8&-9	6&0	10&1
Cc1cccc(C(C)C)c1NC(=O)COC(=O)c1cccc(S(=O)(=O)N2CCc3ccccc3C2)c1	·	-3	-8	16	i	-25	1	-2

13 entries from above, sorted by length of the SMILES, ascending.
SMILES	Yeast UUG start	eIF4H inh	PABP polyA inh	CSC inhib	Rce1 inh	HIV Env fusion	MT1-MMP act inh	MT1-MMP act inh RFP	others
NC(=O)c1[nH]cnc1N	-31&-15	4&-10	-5&3	2&7	i	8&-9	6&0	10&1
O=C(O)c1ccc(OCCOc2ccccc2)cc1	-19	-4	-6	8	i	-5	3	4
C#CC[N+]1(CC#Cc2ccccc2)CCCCC1	·	8	-6	-10	i	2	0	1
O=C(N/N=C/C=C/c1ccccc1)c1ccccn1	·	-12	-10	-4	i	-6	1	1
CC(=O)c1cn(N2CCCCC2)c(=O)[nH]c1=O	-16	-5	-1	-4	i	1	-1	4
Cc1ccc(C2(CC(=O)N3CCCC3)CCOC(C(C)C)C2)cc1 (stereo unspecified)	-9	1	-15	-8	i	-11	1	3
Cc1ccc2[nH]c(=O)c3cc(C(=O)NCCC(C)C)sc3c2c1	-21	6	-8	6	i	-36	3	-1
CSc1n[nH]c2nc3c(c(=O)n12)C1(CCCC1)Cc1ccccc1-3	-11	2	-66	28	i	5	0	2
COc1cc(C(=O)N2CCC3(CC2)NCCc2[nH]cnc23)cc(OC)c1OC	-9	·	·	4	i	-5	1	5
COCc1c(C(=O)OCC(=O)N(C)C2CCS(=O)(=O)C2)oc2ccccc12 (stereo unspecified)	-4	·	·	-11	·	·	-3	0
O=C(c1ccc(C(F)(F)F)cc1)c1c[nH]c(C(=O)NCCCn2ccnc2)c1	16	-7	3	42	i	15	4	4
Cc1c(C(=O)N/N=C/c2ccccc2)[nH]c2c([N+](=O)[O-])cccc12	-16	6	10	40	i	5	-4	-10
Cc1cccc(C(C)C)c1NC(=O)COC(=O)c1cccc(S(=O)(=O)N2CCc3ccccc3C2)c1	·	-3	-8	16	i	-25	1	-2

Some of these compounds in order of length of the SMILES, smallest number first:
SMILES	Yeast UUG start	eIF4H inh	PABP polyA inh	CSC inhib	Rce1 inh	HIV Env fusion	MT1-MMP act inh	MT1-MMP act inh RFP	others
C#CC[N+]1(CC#Cc2ccccc2)CCCCC1	·	8	-6	-10	i	2	0	1
Cc1ccc(C2(CC(=O)N3CCCC3)CCOC(C(C)C)C2)cc1 (stereo unspecified)	-9	1	-15	-8	i	-11	1	3
Cc1c(C(=O)N/N=C/c2ccccc2)[nH]c2c([N+](=O)[O-])cccc12	-16	6	10	40	i	5	-4	-10

(list continues)
SMILES	Yeast UUG start	eIF4H inh	PABP polyA inh	CSC inhib	Rce1 inh	HIV Env fusion	MT1-MMP act inh	MT1-MMP act inh RFP	others
Cc1ccc(NC(=O)COC(=O)c2cc(Cl)ccc2[N+](=O)[O-])c(C)c1	·	-6	7	-9	i	2	5	5
CCn1nc(C)c(NC(=O)Nc2cccc(Cl)c2Cl)c1C	·	-8	3	7	i	8	2	-1
S=c1[nH]nc(CSCc2ccc(Cl)cc2Cl)n1-c1ccccc1	0	3	1	6	i	-13	1	-3
O=C(c1cc2cc(Br)ccc2s1)N1CCOCC1	·	3	-3	-22	i	-13	1	5
CCC(C)(NC(=O)c1ccc2c(c1)OCO2)C(=O)NC1CCCCC1 (stereo unspecified)	-3	3	13	-8	i	7	0	3
O=C(NCCCCCCNC(=O)C1CCCC1)C1CCCC1	-2	11	-3	-18	i	-31	-7	-1
CCN(CC)S(=O)(=O)c1cc(C(=O)OCC(=O)Nc2cccc(Br)c2)ccc1F	·	1	4	-7	i	-2	1	3
O=C(CC1NCCNC1=O)Nc1ccc(Cl)c(Cl)c1 (stereo unspecified)	-12	-7	14	-3	i	21	2	5
CC(C)(C)CC(=O)O/N=C(\N)c1ccncc1	·	-4	?	-12	i	-3	3	1
CCN1C(=O)CCCc2ccccc21	-11	0	4	-11	i	-8	-1	3
CCSc1nnc(-c2ccc(Cl)cc2Cl)o1	-16	-8	-3	3	i	-257	-3	0
COc1cc2ccccc2cc1C(=O)NC1CCCCC1	-8	·	·	·	·	-23	1	-2
Cn1cnc([N+](=O)[O-])c1NC(C)(C)C	-7	-2	1	-8	i	·	5	15
Cc1c(Br)c([N+](=O)[O-])nn1CC(=O)Nc1sc2c(c1C(=O)OC(C)C)CCCC2	-6	8	-13	10	i	-30	1	0
N#Cc1ccccc1N1CCN(C(=O)c2ccc(NC(=O)c3ccc(Br)o3)cc2)CC1	-8	·	·	25	·	·	8	0
COc1ccc(C)cc1NC(=O)CN(C)S(=O)(=O)c1ccc2c(c1)CC(C)N2C(C)=O (stereo unspecified)	-4	·	·	-22	i	-3	3	-1
COc1cccc(N/C=C/C(=O)c2ccc(Cl)cc2)c1	-27	-8	2	26	i	·	3	1
COc1ccc(NCc2cccnc2)cc1	-10	-4	0	-14	i	-8	3	-1
COC(=O)[C@@]1(Cc2ccc(F)cc2)[C@H]2c3cc(C(=O)N(C)C)n(Cc4nc5ccccc5[nH]4)c3C[C@H]2CN1C(=O)c1ccccc1	·	3	-4	-9	·	-8	·	·
CCOC(=O)N1CCN(C(=O)c2cc3c(ccc4ccccc43)oc2=O)CC1	-20	5	2	-9	i	-32	4	10
Cc1cc(C)cc(C(=O)N(Cc2ccco2)c2c(N)n(Cc3ccccc3)c(=O)[nH]c2=O)c1	-6	·	·	-9	·	-20	-2	5
C[C@H]1CN([C@@H](C)CO)C(=O)c2cccc(NC(=O)C3CC3)c2O[C@H]1CN(C)C(=O)Nc1ccc2c(c1)OCO2	-3&0	·	·	3	·	21[16.7 µM]	2	2
COC(=O)c1sc(-c2ccc(C(C)(C)C)cc2)cc1NC(=O)CCC(=O)O	-7	2	1	17	i	-4	1	-6
COc1ccc(N2CCN(Cc3nnc(-c4ccccc4)o3)CC2)cc1	·	-8	-4	-11	·	-1	1	4
O=C(Nc1ccc(S(=O)(=O)NC2=NCCCCC2)cc1)c1cccc(OC(F)F)c1	9	·	·	·	·	2	2	-1
COc1ccccc1NS(=O)(=O)c1ccc(C(=O)N2CCCC(C)C2)cc1 (stereo unspecified)	0	-12	6	-7	i	·	3	-3
CC(=O)NC(Cc1cccc(F)c1)C(=O)NC1CCN(c2nnnn2-c2ccccc2)CC1 (stereo unspecified)	·	-1	-3	-13	i	4	2	2
COc1ccc(-c2cc(C(=O)N3CCCCCC3)c3ccccc3n2)c(OC)c1	20	84*	48*	1	i	-20	-7	-6	eIF4H inh retest=95*;PABP polyA inh retest=75*
CC(C)CC1C(C#N)=C(N)SC(N)=C1C#N	11	?	?	8	i	-31	-98	-2
COCCn1c(=O)c2c(nc3n2CCCN3Cc2ccccc2)n(C)c1=O	-13	-11	0	-16	i	17	1	-5
O=C(/C=C/c1cc(Br)ccc1F)Nc1cccnc1	-24	5	-1	-7	i	-16	4	1
CCCCN1C(=O)C(CC(=O)NCc2cccc3ccccc23)CC(C(=O)N2CCOCC2)=C1C (stereo unspecified)	0	·	·	·	·	-14	-1	-3
CN(C(=O)COC(=O)c1n[nH]c2ccccc12)C1CCS(=O)(=O)C1 (stereo unspecified)	·	2	-5	12	i	-13	-1	2
COc1ccc2cc(-c3[nH]ncc3CN3CCCC3c3nonc3C)ccc2c1 (stereo unspecified)	-14	-6	-22	38	i	-171	-4	-6
O=c1c(Cl)c(Cl)cnn1Cc1ccccc1Cl	·	8	-13	-1	i	-7	·	·
COC(=O)[C@@H]1CC[C@H](C)[C@@H](c2ccc(C)cc2)N1C(=O)c1ccc(/C=N/OC[C@@H](O)COCc2ccco2)cc1	·	4	-6	·	i	·	·	·
CCn1c(=S)sc2c(=O)n(CC(=O)Nc3ccccc3)c(C)nc21	-6	-7	-10	-13	i	9	8	-2
Cc1cccc(NC(=O)COC(=O)C2C3CC4OC(=O)C2C4C3)c1C (stereo unspecified)	·	-2	2	1	i	-12	3	2
CN1CCC(=NNC(=O)c2ccco2)CC1	-7	7	4	-11	i	·	-3	-3
CCCOC(=O)c1cccc(Nc2nc(-c3cccnc3)nc3ccccc23)c1	·	-4	3	72	·	15	-39	-26
Cn1c(C(=O)NCCOc2ccccc2Cl)cc(=O)n(C)c1=O	-6	9	-2	-16	i	9	1	7
COc1ccc(N(C(=O)c2cccnc2)S(=O)(=O)c2ccc3c4c(cccc24)C(=O)N3C)cc1	·	-1	-16	6	i	·	3	2
O=C(Nc1ccccc1C(=O)N1CCOCC1)c1ccco1	-11	0	5	-2	i	·	0	2
COc1ccc(CN(CC2CCCO2)S(=O)(=O)c2ccc(C(=O)O)cc2)cc1OC (stereo unspecified)	-4	-5	10	·	i	-25	2	2
CCOc1ccc2nc(SC(CC)C(=O)Nc3cc(C)on3)sc2c1 (stereo unspecified)	3	-12	2	2	i	·	4	-2
COc1ccc(S(=O)(=O)Nc2cc3c4c(c2)CC(=O)N4CCC3)cc1OC	-6	·	·	·	·	-29	0	1

This is a random part of the collection. Share with any hit: about 2.9%.
